Autofluor counter: counter-screen for toxin protease inhibitors: compound fluorescence | actives 3.1% (n = 360,000) | AID 624483 | compound autofluorescence counterscreen, microsphere flow cytometry; active compounds read high | fluorescence intensity (concentration not given with the values);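 active = at least 3 SD above the mean of all compounds, about 16000 in these data; inconclusive = too few beads counted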;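 note: 100 nL of 1 mM stock went into each well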
Sa ugtP lethal: growth inhibition of S. aureus ugtP deletion strain; actives 0.54% (n = 330,000); S. aureus RN4220 ugtP deletion, OD600 growth, 16 h; some inactives read as strong as hits; AID 1259309; growth inhibition, % (concentration not given with the values);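 active = z-score under -3 and OD600 up to 0.15 on both plates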;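 note: plate controls were untreated wells for no effect and antibiotic for full effect; wells of about 80 µL received 100 nL stock; the first replicate is given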
PrP UTR inh: inhibition of PrP 5' UTR reporter expression; cell-based PrP 5' UTR mRNA reporter, plate reader; inhibition, % (no concentration beside the values); AID 488862; actives 0.35% (n = 340,000);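 active = every replicate at 50% or more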;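 note: 0 = median of the neutral control wells; tested in H4 reporter cells; numbers are from one replicate; inactives centre near -14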
BJeLR viability: BJeLR cell viability loss; inhibition, % (test concentration not listed); AID 1554; BJeLR (HRASV12) viability, CellTiter-Glo ATP luminescence, 48 h; reference of the scale not given here; actives 0.17% (n = 300,000);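 active = replicate mean above 50%; inconclusive = above 50% but judged a plate artefact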;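 note: 50 nL library stock added to about 25 µL; numbers are from one replicate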
Sa RN4220 lethal: kills Staphylococcus aureus RN4220. actives 0.33% (n = 330,000). S. aureus RN4220 growth, OD600, 16 h. inhibition, % (test concentration not listed);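 active = z-score of -3 or lower and OD600 up to 0.18 on both plates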;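 note: plate controls were untreated cells for no effect and reference antibiotic for full effect; stock transfer was 100 nL into about 80 µL; one replicate is shown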
Mtb hypoxia rep: reduces hypoxia-regulated biosensor signal in M. tuberculosis; actives 0.1% (n = 300,000); fluorescence inhibition, % (concentration not given with the values); AID 1159583; M. tuberculosis hypoxia-regulated fluorescent reporter, fluorescence;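 active = 35 to 45% if threefold the growth effect, above 45% if 1.5-fold the growth effect; inactive = the rest, general growth blockers included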;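 note: wells of about 50 µL received 100 nL stock; 0% = vehicle wells and 100% = reference inhibitor wells; whole bacteria with a GFP reporter of the hypoxia response; strong numbers were not always called active; many hits fall short of the cut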
Mtb hypoxia rep growth: recorded beside Mtb hypoxia rep, whose call it bears; growth inhibition, %; measured here: M. tuberculosis growth (absorbance);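 0% = vehicle and 100% = reference antibiotic; read after six days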
* marks the source's active call; other numbers are inactive results; u = inconclusive; x = not tested or not shown. This is a random part of the collection; any-hit rate near 3.9%.

Results follow in this order: Autofluor counter	PrP UTR inh	Sa RN4220 lethal	Sa ugtP lethal	Mtb hypoxia rep	BJeLR viability	Mtb hypoxia rep growth
Cc1onc(-c2ccccc2Cl)c1C(=O)N(Cc1ccccc1)C(C)C
 : 3581	3	9.0	1	-1	2	-13
CC(=O)Nc1ccc(SCC(=O)OCC(=O)NC(=O)NC2CCCC2)cc1
 : 4664	-12	3.1	1	6	0	2
O=S(=O)(CCSc1nc2ccccc2o1)Cc1ccccc1
 : 4984	-8	6.5	1	-5	-3	0
Cc1cccc(Nc2nnc(SCC(=O)Nc3cccnc3Cl)s2)c1
 : 2179	-27	4.7	11	16	-14	7
COc1ccc(CNC(=O)CN(C)S(=O)(=O)c2ccc(Cl)cc2)cc1
 : 3892	-26	6.5	8	7	0	3
COCCn1nnnc1C(c1ccc2ncccc2c1)N1CCc2ccccc21 (configuration not stated)
 : 9053	-19	5.9	-4	5	4	9
CCNC(=S)NNC(=O)c1cc(-c2cccnc2)nc2ccccc12
 : 3302	7	16	4	21	-16	23
Cc1noc(NS(=O)(=O)c2ccc(NC(=O)c3cc(S(=O)(=O)Nc4ccc(F)cc4)ccc3Cl)cc2)c1C
 : 4067	4	3.9	1	4	x	7
Cc1cccc(C)c1NC(=O)NC1(C(=O)NCCN2CCOCC2)CCCCC1
 : 3879	-9	2.3	4	-8	-2	6
O=[N+]([O-])c1ccc(N/N=C/c2sc(N3CCOCC3)nc2-c2ccccc2)c(S(=O)(=O)Nc2ccc(Cl)cc2)c1
 : 3910	11	x	x	x	12	x
COCCn1c(=O)[nH]c2cc(C(=O)NCCN3CCN(c4ccc(OC)cc4)CC3)ccc2c1=O
 : 9471	-24	3.1	-8	-1	-7	7
CCc1ccc(C(C)=NNC(=O)C(O)c2ccccc2)s1 (configuration not stated)
 : x	x	3.5	10	7	x	10
COc1ccc(N2C(=O)/C(=C\c3ccco3)N=C2SCC(=O)NC(C)C)cc1Cl
 : 2486	-9	4.1	-7	6	5	7
CC(Sc1nn(-c2ccc(F)cc2)c(=S)s1)C(=O)c1c(N)n(C)c(=O)n(C)c1=O (configuration not stated)
 : u	-19	x	x	x	2	x
CCCNS(=O)(=O)c1ccc(CCC(=O)N2CCCCC2)cc1
 : 2953	-8	4.8	3	9	-7	4
O=C(O)C1CC=CCC1C(=O)NCCCCc1ccccc1 (configuration not stated)
 : 4822	-21	2.1	3	6	5	8
COc1cc(O)c(C(CC(=O)N2CCOCC2)c2cc(OC)c(OC)c(OC)c2)c(OC)c1 (configuration not stated)
 : 3607	-10	4.8	-8	-2	5	-2
COc1ccc(-n2ccc(=O)c(C(=O)Nc3ccc(S(=O)(=O)Nc4nccs4)cc3)n2)cc1
 : 5568	6	-0.8	-2	10	0	22
COC(=O)CN1C(=O)C2C(c3ccc(C)o3)N3C(=O)CN(CCO)C(=O)[C@@]3(C)C2C1=O (some centres not stated)
 : x	x	6.8	0	7	x	-4
CCC(=O)O/N=C(\N)c1ccc(Oc2cc(C)c(Cl)c(C)c2)c([N+](=O)[O-])c1
 : 3907	-21	x	x	x	-3	x
CCc1ccc(N2CC(C(=O)OCC(=O)Nc3ccccc3C)CC2=O)cc1 (configuration not stated)
 : 8790	-18	4.1	2	16	x	41
CSc1ccccc1NC(=O)COC(=O)Cn1cc(C(F)(F)F)ccc1=O
 : 7839	-23	-1.8	-3	9	x	9
O=C(CCNC(=O)N1C[C@H]2C[C@@H](C1)c1cccc(=O)n1C2)Nc1ccc(F)cc1
 : 4497	-7	2.1	-5	x	0	x
COC(=O)N/N=C/c1cn(CCOc2ccc(OC)cc2)c2ccccc12
 : 3975	-8	x	x	x	1	x
Cc1cc(N2CCOCC2)n2nc(C(F)(F)F)c(-c3ccccc3)c2n1
 : 3792	-9	4.6	8	3	-7	4
Cc1ccc(NC(=O)CCc2nc3ccccc3[nH]2)cc1C
 : 3309	-18	2.9	10	11	-2	29
Cc1ccc(-n2ccc(=O)c(C(=O)Nc3ccc(S(=O)(=O)Nc4nccs4)cc3)n2)cc1
 : 4943	-5	1.4	1	16	-1	19
C(#Cc1ccc(C#CCN2CCCC2)cc1)CN1CCCC1
 : 2646	-39	1.1	1	11	4	8
FC(F)(F)c1nnc2c(Sc3ccccc3)nc3ccc(Cl)cc3n12
 : 15965	-12	5.8	10	3	62*	13
C/C(CC(=O)Nc1c(Cl)cccc1C(F)(F)F)=N\NC(=O)c1cnccn1
 : 6187	9	x	x	x	1	x
CC(NC(=O)c1cccc(S(=O)(=O)N(C)C)c1)C1CC2CCC1C2 (configuration not stated)
 : 4682	0	3.6	15	-3	-4	-12
Cc1ccc(Cl)cc1-n1c(O)c(C=NCCCN2CCOCC2)c(=O)[nH]c1=O
 : 4069	-19	0.9	-3	x	-16	x
O=C(CCN1CCOCC1)NCC(=O)Nc1ccc(Br)cc1C(=O)c1ccccc1
 : 4255	-21	5.3	9	x	-21	x
Cc1ccccc1NC(=O)c1nn(-c2ccc(F)c(F)c2)ccc1=O
 : 3693	-32	-2.4	-13	-6	-12	13
O=C1NC[C@H](Cc2ccccc2)N(CC2CCCCC2)C1=O
 : 4183	-6	x	x	x	-2	x
O=S(=O)(CCn1cccc1)CCn1cccc1
 : 4570	-3	26	2	x	11	x
Cn1c(CN2CCN(CC#N)CC2)c(C#N)c2ccccc21
 : 3289	-24	-0.3	9	x	-3	x
CCCC(=O)Nc1ccccc1NC(=O)C1CCCCC1
 : 23241*	9	3.1	-1	-2	-7	0
CCOc1cc(/C=N/N=C2/NC(=O)C(CC(=O)O)S2)ccc1OCc1ccccc1Cl (configuration not stated)
 : 2641	-11	x	x	x	4	x
Cc1ccc2c(c1)c1nnc(SCC(=O)N3CCCc4ccccc43)nc1n2CC(=O)O
 : 2211	-143	5.1	13	4	-4	-3
COc1cc(/C=N/n2cnnc2)ccc1OC(=O)N(C)C
 : 8145	-18	x	x	x	0	x
CC(=O)Nc1cccc(NC(=O)c2cccc(OCc3ccccc3)c2)c1
 : 4499	-19	-1.3	0	4	-4	2
Cc1ccc(NC(=O)N2CCCCCC2)cc1C
 : x	-46	0.2	2	4	-5	0
CCOC(=O)CCc1c(C)c(C#N)c2nc3ccccc3n2c1-n1ccnc1
 : 3192	10	6.3	2	8	4	6
CCN(CC)CCCNC(=O)c1ccc2c(=O)n(Cc3ccc4c(c3)OCO4)c(=S)[nH]c2c1
 : 4284	-20	3.9	2	14	-4	-2
O=C(CS(=O)(=O)c1ccc2ccccc2c1)Nc1ccccc1Cl
 : 2637	-27	3.3	4	2	2	-1
O=c1cc(CN2CCc3ccccc32)nc2sccn12
 : 5432	5	3.5	0	13	5	6
O=C1N2CN(C(c3ccccc3)c3ccccc3)CN=C2SC1(CO)CO
 : 10655	-27	4.0	1	8	1	4
COc1cccc(NC(=O)CCNC(=O)C2CCN(S(=O)(=O)c3ccc(F)cc3)CC2)c1
 : 5674	-19	2.3	-1	-2	11	-4
Cc1cc(Nc2ccccc2)nc(N)n1
 : 11268	-33	5.0	9	3	8	3
COc1ccc(CCN(Cc2cccs2)S(=O)(=O)c2ccc(-n3cnnn3)cc2)cc1OC
 : 4599	-49	11	1	x	x	x
Cc1cccc(NC(=S)NC(=O)c2cc(-c3ccccc3)nc3ccccc23)c1
 : 3192	-15	-2.3	6	x	6	x
N#CCSc1nnc(CNc2cccc(Cl)c2)o1
 : 10268	-31	4.6	4	10	-14	5
C=CCN=C(SCC(=O)c1ccc(Cl)cc1)c1c(O)n(C)c(=O)n(C)c1=O
 : 5503	-41	3.9	5	10	0	5
O=C(NCc1ccccc1)c1ccc(CN2CCC(Cc3ccccc3)CC2)cc1
 : 3915	-28	-4.8	-5	-18	9	7
O=C(Cn1ncc2c3ccccc3n(Cc3ccccc3)c2c1=O)NCCCN1CCCC1
 : 5541	-17	2.0	14	9	2	3
CS(=O)(=O)c1ccc(C(=O)Nc2ccc(S(=O)(=O)N3CCCCC3)cc2)cc1
 : 5864	-8	2.6	0	8	-5	7
O=C(Nc1nc2ccccc2c(=O)s1)c1ccco1
 : 4631	-19	2.9	7	10	-7	1
CCCCC(NC(=O)c1ccc(C#N)cc1)C(=O)NCCC (configuration not stated)
 : 3096	-18	4.1	4	13	x	11
Cc1ccc(Cc2nc(-c3cccnc3)no2)cc1
 : 1981	5	1.5	3	13	-5	10

Continued:
Results follow in this order: Autofluor counter	PrP UTR inh	Sa RN4220 lethal	Sa ugtP lethal	Mtb hypoxia rep	BJeLR viability	Mtb hypoxia rep growth
COc1cc(-c2ccc3oc(-c4ccsc4)c(C#CC4(O)CCCCC4)c3c2)cc(OC)c1OC
 : 3859	-6	11	17	3	-3	10
O=C(O)CCS(=O)(=O)c1nc(-c2cccs2)cc(C(F)(F)F)n1
 : 7332	x	4.2	11	12	5	0
CCOC(=O)CNC(=S)N(CCCN1CCCC1)Cc1cccs1
 : 2484	-35	-1.2	1	-2	1	0
Cc1ccc[n+](-c2[nH]c(=O)sc2C=N/N=C(\[O-])c2cccnc2)c1
 : x	x	3.5	8	1	x	2
O=C(Nc1ccon1)Nc1cc(Cl)ccc1Cl
 : 5848	3	-3.0	-2	-8	-11	9
CCN(CC)S(=O)(=O)c1ccc(OC)c(NC(=S)Nc2ccc(C)c(C)c2)c1
 : 9059	13	10	10	2	5	0
CCCCNC(=O)[C@@H]1CSC2c3ccc(OC)c(OC)c3C(=O)N21 (some centres not stated)
 : 2953	2	1.1	-1	-3	-3	-3
C=CCOc1ccccc1C=Nn1nnnc1N
 : x	x	6.8	0	16	x	8
CCn1c(SCC(=O)c2ccc(NC(C)=O)c(OC)c2)nnc1-c1ccc(NS(C)(=O)=O)cc1
 : 1955	0	4.0	-2	1	-5	-4
N#C/C(=C\Nc1ccc(Cl)cn1)S(=O)(=O)c1ccccn1
 : 5183	-22	3.1	0	-2	-8	1
Nc1c(C(=O)NCc2ccc3c(c2)OCO3)nnn1Cc1cccc(F)c1
 : 4976	-8	x	x	x	0	x
COc1ccc(CC(=O)NN2C(=O)c3ccccc3C2=O)cc1
 : 8635	-5	4.0	3	0	10	10
O=C(Cc1csc(-c2ccccc2)n1)NCc1ccccc1F
 : x	x	1.9	-5	17	-10	6
O=C(c1ccco1)N1CCN(S(=O)(=O)Cc2ccccc2Cl)CC1
 : 3369	-7	3.1	8	8	11	-1
CC(Oc1ccc(C=NNC(=O)Cc2cccc3ccccc23)cc1)C(=O)O (configuration not stated)
 : x	x	3.9	10	8	x	6
CC(C)C[C@H](NC(=O)C1CC(=O)N(c2ccc(F)cc2)C1)C(=O)N1CCCCC1 (some centres not stated)
 : 5412	-13	-0.1	0	2	3	4
COc1ccc(NC(=O)c2cc(-c3cccs3)on2)c(OC)c1
 : 4450	-26	-1.4	4	1	-9	-1
CCCn1c(=O)c2c(nc3n2CCCN3CCc2ccc(OC)c(OC)c2)n(C)c1=O
 : 3634	-2	2.4	6	3	7	7
O=C(CCNS(=O)(=O)c1cccc2nonc12)NCc1cccs1
 : 9411	-31	4.8	-5	8	-7	7
CCCCCN1C=CC(=C2C(=O)c3ccccc3C2=O)C=C1
 : 4716	89*	5.3	5	15	51*	6
COC(=O)c1ccc(C(=O)NN)cc1
 : 3034	0	3.4	0	6	-5	19
COC(=O)c1c(-c2ccc(C)cc2)csc1NC(=O)c1c(-c2ccccc2)noc1C
 : x	x	-2.9	9	8	20	2
O=S(=O)(CCc1nc2ccccc2o1)c1ccc2ccccc2c1
 : 3152	-5	-2.7	-6	7	-17	7
Cc1ccccc1OCC(=O)OCC(=O)N1CCc2ccccc21
 : u	3	3.1	3	-6	x	-1
O=C(Nc1cccc(S(=O)(=O)N2CCOCC2)c1)[C@@H]1CCCN1S(=O)(=O)c1ccc(Cl)cc1
 : 2417	-10	3.1	9	0	-17	-6
Cn1c(=O)c2c(SCC(=O)NCC3CCCO3)nc(CC(C)(C)C)nc2n(C)c1=O (configuration not stated)
 : 5732	-11	3.7	3	13	2	4
Cc1c(NC(=S)N/C(=N/S(=O)(=O)c2ccc(Cl)cc2)c2ccccc2)c(=O)n(-c2ccccc2)n1C
 : 4940	-19	3.4	-3	8	11	2
Cc1cccc(Cc2c(C)nc3c(C(=O)NCc4ccco4)cnn3c2C)c1
 : 23199*	9	-3.1	-9	-3	12	19

Screens from PubChem BioAssay.
